Assay outcomes: PubChem, several laboratories
Rce1 inh: blocks yeast Ras-converting enzyme; Q03530; yeast membranes, quenched prenylated peptide cleavage fluorescence; calls only; 290,000 compounds, 0.27% hits; AID 2563;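 active means fall in fluorescence gain of 50% or more versus controls, with final raw signal at or below 3038400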;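 further: plate controls were neutral control wells for no effect and wells lacking membranes for full effect; tested at 10 µM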
Target sequence (Q03530 whole entry, looked up): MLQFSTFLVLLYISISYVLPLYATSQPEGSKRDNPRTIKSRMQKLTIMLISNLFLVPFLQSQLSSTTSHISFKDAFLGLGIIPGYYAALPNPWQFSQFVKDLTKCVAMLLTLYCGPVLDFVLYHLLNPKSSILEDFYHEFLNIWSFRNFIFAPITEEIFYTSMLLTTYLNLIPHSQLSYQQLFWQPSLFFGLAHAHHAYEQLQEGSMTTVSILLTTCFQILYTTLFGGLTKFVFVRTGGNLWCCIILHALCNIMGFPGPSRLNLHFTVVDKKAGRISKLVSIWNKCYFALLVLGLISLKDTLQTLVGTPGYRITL
MT1-MMP act inh: MT1-MMP (human) activation inhibition; P50281; HT1080 RFP-PRO-GFP cells, GFP/RFP ratio fluorescence, overnight; percent of plate control window, DMSO zero; GFP/RFP ratio change, % at 20 µM; 360,000 compounds, 0.061% hits;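 active means GFP/RFP ratio change of at least 30% with cell ATP level not reduced by more than half and red fluorescence within 50% of control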; further: strong numbers were not always called active
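Assay system: HT1080 RFP-PRO-GFP cells | Dosing: 20 µM single dose, 1% DMSO | Incubation: Cells overnight before dosing, compound overnight, 37 °C, 5% CO2 | Evaluation: GFP/RFP fluorescence ratio | Control set: DMSO-only wells and HT1080 RFP-L50D-GFP cell wells as references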
Env fusion inh: inhibitors of HIV Env-mediated cell fusion. 360,000 compounds, 1.1% hits. inhibition, % at 12.3 µM. HeLa-JRFL Env/CEM21 cell fusion, luciferase;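 active means mean replicate inhibition score of at least 50 and every replicate individually at or above 50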;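 further: 0% = plate neutral controls and 100% = maraviroc near 300 nM; one replicate is shown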
CSC inhib: cancer stem cell inhibition; cancer stem cell-like cells viability, luminescence; 300,000 compounds, 1.1% hits; inhibition, % at 7.5 µM;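 active means mean at 75% or more and at least half the replicates too; tested in HMLE shEcad cells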;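 further: 0% = median of negative and 100% = median of positive control wells; the first replicate is given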
PABP polyA inh: PABP-poly(A) binding inhibition | PABP-poly(A) RNA binding, fluorescence polarization | P11940 | inhibition, % at 35 µM | 290,000 compounds, 1% hits;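 active means 50% or more with normal probe brightness, or confirmed in later tests; about a fifth of its hits are not listed in these tables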;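 further: calls also rest on retests at 20 µM and on dose response follow-up; controls were probe without protein and protein plus probe with vehicle; some compounds called inactive have numbers as strong as hits; many hits fall short of the cut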
Target sequence (P11940 whole entry, looked up): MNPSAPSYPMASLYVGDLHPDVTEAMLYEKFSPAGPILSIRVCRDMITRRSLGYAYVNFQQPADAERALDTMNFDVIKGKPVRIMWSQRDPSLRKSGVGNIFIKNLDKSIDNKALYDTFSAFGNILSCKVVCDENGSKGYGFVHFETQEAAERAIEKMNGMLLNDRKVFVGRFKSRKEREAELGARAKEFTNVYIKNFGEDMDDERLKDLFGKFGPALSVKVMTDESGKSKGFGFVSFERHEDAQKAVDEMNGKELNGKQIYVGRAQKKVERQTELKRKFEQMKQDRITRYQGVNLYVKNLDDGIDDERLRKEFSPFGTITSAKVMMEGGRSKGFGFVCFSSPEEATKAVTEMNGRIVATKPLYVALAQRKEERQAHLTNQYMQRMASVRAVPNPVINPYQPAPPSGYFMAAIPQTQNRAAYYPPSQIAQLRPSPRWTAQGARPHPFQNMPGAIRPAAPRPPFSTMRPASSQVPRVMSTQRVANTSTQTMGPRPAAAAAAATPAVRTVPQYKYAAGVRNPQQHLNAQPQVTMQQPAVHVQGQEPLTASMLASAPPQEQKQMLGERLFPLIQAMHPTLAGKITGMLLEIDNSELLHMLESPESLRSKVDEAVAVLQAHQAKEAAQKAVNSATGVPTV
Yeast UUG start: modulators of start codon recognition fidelity in yeast | S. cerevisiae UUG-firefly luciferase reporter, luminescence/redox ratio | activity score, % at 18.7 µM | 350,000 compounds, 0.13% hits;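 active means replicate mean at a twofold rise or more, about +100% in these data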;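 further: firefly luciferase made from a UUG start codon reports start codon fidelity; reporter light over untreated wells divided by growth signal over untreated wells; some hits fall short of that in this replicate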
eIF4H FP inh: inhibitors of RNA binding by human eIF4H | Q15056 | eIF4H fluorescence polarization binding assay | inhibition, % at 35 µM | 290,000 compounds, 0.94% hits;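 active means 50% or more with normal probe brightness, or confirmed in later tests; about a fifth of its hits are not listed in these tables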;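 further: calls also rest on retests at 20 µM and on dose response follow-up; 0% = protein and probe with vehicle and 100% = probe without protein; strong numbers were not always called active; many hits fall short of the cut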
eIF4H FP inh retest: second read-out of eIF4H FP inh, no call of its own (marks repeat the call); inhibition, %; compound at 20 µM; confirmation average;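 mean of two retest wells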
PABP polyA inh retest: recorded beside PABP polyA inh, whose call it bears; inhibition, %; compound at 20 µM; confirmation repeats;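 mean of two retest wells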
MT1-MMP act inh RFP: further read-out of MT1-MMP act inh, marked with its call; RFP signal change, %; measured here: RFP expression control read;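 0 = vehicle wells; hits needed this value within 50% of zero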
Numbers without * were called inactive; i = inactive; · = not tested or not shown. This is a subset, so the mix of outcomes need not match the whole.

SMILES	Rce1 inh	MT1-MMP act inh	MT1-MMP act inh RFP	Env fusion inh	CSC inhib	PABP polyA inh	Yeast UUG start	eIF4H FP inh	others
O=C(Oc1ccccc1N1C(=O)CCC1=O)c1ccco1	i	6	5	-7	-1	8	-28	6
Cc1cc(C)c(NC(=O)NC(=O)c2ccc(F)cc2)c(C)n1	i	6	-2	14	0	60*	-8	76*	eIF4H FP inh retest=63*;PABP polyA inh retest=50*
Cc1nc2cc(NC(=O)N3CCCCC3)ccc2n1C	i	9	7	·	0	-1	-12	5
Nc1nc2n(n1)C(c1ccc(F)cc1)CC(c1ccc(F)cc1)N2 (stereo unspecified)	i	4	6	-22	-12	-9	-23	-4
Cc1ccc(C)c(N2CCN(C(=O)c3cc(S(=O)(=O)N4CCOCC4)ccc3F)CC2)c1	i	-2	-6	34	-4	14	·	-1
COc1ccc(Cl)cc1NC(=O)CSc1nnc(Cc2ccc(C)cc2)c(=O)[nH]1	i	4	-1	-4	8	·	-10	·
COc1cccc(CNCC(O)COc2ccc(C(=O)c3ccccc3)cc2)c1 (stereo unspecified)	i	2	-3	8	4	5	-11	2
Cc1ccc(-c2nnn(CC(=O)N3CCCCC3)n2)c(-n2cnnn2)c1	i	1	5	·	-19	1	-14	1
C/C(=N\O)C(=O)C(CN1CCCCC1)CN1CCCCC1	·	3	2	·	9	-5	-17	0
O=C(COc1ccc(C(=S)N2CCC(Cc3ccccc3)CC2)cc1)N1CCOCC1	i	-1	1	14	16	-14	-15	4
CCOc1cccc2sc(N(CCN(CC)CC)C(=O)c3cccc([N+](=O)[O-])c3)nc12	i	0	3	-1	-22	-3	·	-6
COc1ccc(-n2nc(C(=O)Nc3ccc4c(c3)OCO4)c3ccccc3c2=O)c(OC)c1	·	0	1	·	·	-2	-13	-1
CC(C(=O)Nc1cccc(S(=O)(=O)N2CCOCC2)c1)N1CCN(c2ccc(F)cc2)CC1 (stereo unspecified)	i	6	-1	-11	-15	-6	·	3
CCN(CC)CCCn1c2c(c(SCC(=O)N3CCc4ccccc43)nc1=O)CCC2	i	-6	1	2	-5	·	12	·
Cc1ccccc1COc1ccc(-c2nnn(CC(=O)O)n2)cc1	i	-2	3	5	-5	27	-13	-3

Filtered by structure: the entries above with an aryl thioether with sulfur outside any ring.
SMILES	Rce1 inh	MT1-MMP act inh	MT1-MMP act inh RFP	Env fusion inh	CSC inhib	PABP polyA inh	Yeast UUG start	eIF4H FP inh	others
COc1ccc(Cl)cc1NC(=O)CSc1nnc(Cc2ccc(C)cc2)c(=O)[nH]1	i	4	-1	-4	8	·	-10	·
CCN(CC)CCCn1c2c(c(SCC(=O)N3CCc4ccccc43)nc1=O)CCC2	i	-6	1	2	-5	·	12	·

The list goes on:
SMILES	Rce1 inh	MT1-MMP act inh	MT1-MMP act inh RFP	Env fusion inh	CSC inhib	PABP polyA inh	Yeast UUG start	eIF4H FP inh	others
CC(C(=O)c1ccc(Br)cc1)[n+]1cccc(NC(=O)c2ccccc2)c1 (stereo unspecified)	i	3	2	-13	3	7	·	-12
C=CCn1c(SCc2nc3sc(C(=O)O)c(C)c3c(=O)[nH]2)nnc1-c1ccc(F)cc1	i	-8	2	8	0	0	·	-6
CSc1ccc(CN(C)Cc2nc3ccccc3c(=O)[nH]2)cc1	i	-11	-2	-1	-22	-2	·	-2
COc1ccc(-c2nsc(SCC(=O)NCc3ccc4c(c3)OCO4)n2)cc1	i	1	1	18	15	4	·	-10
Cc1ccc(CC(SCc2ccccc2)C(=O)O)cc1C (stereo unspecified)	i	-2	-2	3	-19	0	-12	-3
Cc1noc(C)c1COC(=O)c1cc(F)c(F)cc1Cl	i	-1	2	-51	-4	9	-19	3
NC(=O)CC(NC(=O)Cc1cccc2ccccc12)c1ccc(NC2CCN(Cc3ccccc3)CC2)c([N+](=O)[O-])c1 (stereo unspecified)	i	2	1	22	4	-13	13	-21
O=C(c1cnn2cccnc12)N1CCN(Cc2ccc3c(c2)OCO3)CC1	i	4	0	-5	1	-8	-5	0
Cc1ccc(C)c(NC(=O)c2cc(-c3cc(C)cc(C)c3O)n[nH]2)c1	i	0	-4	-8	·	-3	-5	-4
COCCN(C(=O)COC(=O)CCc1ccc(OC)cc1)c1c(N)n(Cc2ccccc2)c(=O)[nH]c1=O	i	0	-3	-1	-4	·	·	·
CN(C)c1nc2ccccc2n(C)c1=O	i	6	1	9	7	1	·	-3
O=C(NCc1ccccc1)c1cnc(Cc2c[nH]c3ccccc23)c(I)c1	·	3	-6	-215	·	·	1	·
CN(C)c1ccc(C2N(c3ccc(F)cc3)C(=O)C3CCCN32)cc1 (stereo unspecified)	i	0	2	-13	-5	-8	-16	0
O=C(Cn1[nH]c(=O)c2ccccc2c1=O)Nc1cccnc1	i	5	2	-13	0	5	·	9
CC(=O)Nc1nc(-c2ccccc2)nc(-c2ccccc2OC(C)=O)n1	i	-4	-3	·	23	5	-3	-8
O=C(NCc1ccccc1CN1CCCC1)c1ccc(Cl)c(S(=O)(=O)N2CCCC2)c1	·	6	2	8	·	·	-3	·
CCOC(=O)C(C)/C(C)=N/NC(N)=S (stereo unspecified)	i	7	4	-153	-12	-2	-9	-2
N#C/C(=C(/O)CSc1ccccc1C(=O)O)c1nc2ccccc2s1	i	1	6	1	-5	4	-5	0
CCN(CC)S(=O)(=O)c1ccc(N2CCCC2)c(NC(=O)c2ccccc2OC)c1	i	1	0	4	13	-9	4	-4
COc1ccc(CCNC(=O)CSc2nc3ncccc3[nH]2)c(OC)c1	i	4	5	14	-4	6	-5	-9
COc1ccc(NC(=O)C(Sc2ccccc2)c2ccccc2)c(OC)c1 (stereo unspecified)	i	-4	-6	26	13	-6	-12	-16
O=C(Oc1ccc(Cl)cc1)N1CCOCC1	i	1	4	-4	12	8	-6	4
COc1ccccc1NS(=O)(=O)c1ccc(-c2cnc(C3CC3)o2)cc1	i	-2	-10	-12	17	0	-18	-2
Cc1ccc(C(=O)NNC(=O)c2ccncc2)cc1C	i	3	8	13	-1	-6	-9	-7
O=S(=O)(Nc1nc(SCc2ccc(Cl)cc2)n[nH]1)c1ccc(F)cc1	i	3	-6	5	14	-3	-17	-11
CC(C)C[C@H]1CNC(=S)N1C[C@H]1CCCN1C[C@H](CC(C)C)N1C[C@H](Cc2ccc(O)cc2)N(CC2CCCCCC2)C1=S	·	-4	-9	11	·	·	-18	·
Cc1ccccc1NC(=O)NC1(C(=O)NCC2CCCO2)CCCCC1 (stereo unspecified)	i	-1	3	-6	-1	-2	-12	-7
OCCNc1nc2ccccc2n1CC(O)c1ccccc1 (stereo unspecified)	i	1	1	-4	-17	6	·	15
Cc1cccc(NS(=O)(=O)c2cc3c4c(c2)CCC(=O)N4CCC3)c1	i	6	-9	0	-5	·	·	·
Cc1ccc(C(C(=O)NC2CCCCC2)N2CCN(C(=O)c3ccco3)CC2)cc1 (stereo unspecified)	i	0	2	16	-8	3	-7	-16
CCN(CC)CCCN1C(=O)CSC1c1ccc([N+](=O)[O-])cc1 (stereo unspecified)	i	1	0	-50	3	8	·	-14
COC(=O)c1[nH]c2ccccc2c1NC(=O)CNC1CCCCC1	i	-1	-5	-4	0	9	0	6
Cc1cc(C)cc(NC(=O)CSc2ccc(-c3cccs3)nn2)c1	i	5	-4	-4	14	6	-9	-16
COc1ccc(Cn2cc(Cn3c4ccccc4c(=O)n3C(C)C)nn2)cc1	·	2	2	4	·	·	-8	·
Cc1cc(C)c2nc(SCC(=O)N(C)C3CCS(=O)(=O)C3)cc(C)c2c1 (stereo unspecified)	i	·	·	-39	-9	-1	·	-1
COc1ccc(CN2CCC[C@]3(N[C@H](c4ccc(C(F)(F)F)cc4)[C@@H]4C(=O)N(Cc5ccccc5)C(=O)[C@@H]43)C2=O)cc1	·	0	-7	-133	·	·	-9	·
COc1ccc(CCCNC(=O)C2CCC(=O)N(CC3CCCCC3)C2)cc1 (stereo unspecified)	i	4	-1	19	-13	-2	4	-12
Cc1cc(C)cc(NC(=O)Cn2nnc(C(=O)NCc3ccc4c(c3)OCO4)c2N)c1	i	0	-2	-1	2	-9	-9	6
Cc1ccc(C)c(CS(=O)(=O)c2cn(CC(=O)N3CCCCC3)c3ccccc23)c1	i	-6	1	30	·	17	-16	-1
COC(=O)/C=C1\C(=O)N(c2nc3ccccc3s2)C(=S)N1c1ccc(F)cc1	i	-30	-6	-5	4	42	-26	31
COCCn1cc(C(=O)NCCCOC(C)C)c2c3ccccc3n(C)c2c1=O	i	3	3	0	-1	4	-26	-8
CC(C)N(Cc1ccccc1)C(=O)C1CCN(c2ncnc3c2nc2n3CCCCC2)CC1	i	6	-2	-2	-12	-2	8	72	eIF4H FP inh retest=25;PABP polyA inh retest=17
Cc1ccc(C(=O)N2CCC(n3nccc3NC(=O)Nc3cccc(F)c3)CC2)cn1	i	0	2	1	-14	·	-11	·
O=C1Nc2ccc(Br)cc2C12OCCO2	i	-2	3	7	-9	·	·	·
O=C(Nc1cccc2ccccc12)NC1CCS(=O)(=O)C1 (stereo unspecified)	i	-3	-1	9	4	8	·	-4

Random excerpt: three compounds from above
SMILES	Rce1 inh	MT1-MMP act inh	MT1-MMP act inh RFP	Env fusion inh	CSC inhib	PABP polyA inh	Yeast UUG start	eIF4H FP inh	others
Cc1ccc(C)c(CS(=O)(=O)c2cn(CC(=O)N3CCCCC3)c3ccccc23)c1	i	-6	1	30	·	17	-16	-1
COC(=O)c1[nH]c2ccccc2c1NC(=O)CNC1CCCCC1	i	-1	-5	-4	0	9	0	6
COC(=O)/C=C1\C(=O)N(c2nc3ccccc3s2)C(=S)N1c1ccc(F)cc1	i	-30	-6	-5	4	42	-26	31

The list goes on.
SMILES	Rce1 inh	MT1-MMP act inh	MT1-MMP act inh RFP	Env fusion inh	CSC inhib	PABP polyA inh	Yeast UUG start	eIF4H FP inh	others
CC(C)CCN1CCN(C/C=C/c2ccco2)CC1CCO (stereo unspecified)	i	4	1	4	-1	10	7	16
C=CCNC(=O)c1ccc2c(c1)N(CC)C(=O)c1ccccc1S2	i	1	-3	6	-8	8	-20	3
CC(C)CCN1CCN(Cc2ccon2)CC1CCO (stereo unspecified)	i	3	2	-2	-3	-5	-16	5
CN(C(=O)CCCN1CCCC1=O)C1CCCN(Cc2ccccc2F)C1 (stereo unspecified)	i	0	0	12	·	6	0	-7
COc1ccc(N(C(=O)c2ccn[nH]2)C(C(=O)NC2CCCC2)c2ccc(F)cc2)cc1 (stereo unspecified)	·	0	3	4	-9	3	-1	-3
Cc1cc(C)n(-c2cccc(Cl)c2)c(=O)c1C#N	i	0	5	-73	18	8	-1	-1
CCC1S/C(=N/S(=O)(=O)c2ccc(N)cc2)NC1=O (stereo unspecified)	·	11	-2	-13	·	·	5	·
Cc1cc(C)nc(SCc2nnc(SCC(=O)Nc3nccs3)n2C)n1	·	1	-2	·	·	-4	-20	3
O=c1[nH]c(N/N=C/c2ccc(O)cc2)nc2ccccc12	i	0	-8	-40	-7	-3	·	-2
CC(C)OCCCNC(=O)CCc1nc(-c2ccccc2)no1	i	0	2	-58	-22	-1	-2	1
Cc1ccc2cc(C(c3nnnn3C(C)(C)C)N3CCCCCC3)c(=O)[nH]c2c1 (stereo unspecified)	i	3	0	·	15	18	-4	6
CCC(/C=N/NC(=O)C(N)=O)CC	i	1	2	6	-9	5	-32	1
C#CCOc1ccc(/C=C2/C(=O)ON=C2C)cc1Br	i	7	4	-13	-4	0	-26	5
COc1ccc(NC(=O)CO/N=C(\C)c2cccs2)cc1	i	1	-1	-27	12	-2	-25	-4
CCCC(=O)Nc1nnc(SCC(=O)NCc2ccco2)s1	i	0	4	-8	1	2	-6	-8
C=CCN1C(=O)C2C(C(=O)NC3CCCCC3)C3C=CC2(O3)C1C(=O)NC1CCCC1 (stereo unspecified)	i	-6	1	-15	-6	-2	-25	-1
CCCNC(=O)c1ccc(COc2ccc(C)cc2)o1	i	2	0	-2	21	-5	-6	-1
